gsp antag = antagonizes gsp, the McCune-Albright syndrome mutation. 340,000 tested, 0.4% active. gsp-mutant cells, cAMP HTRF, 30 min; control for the full effect not named in the record. AID 624288. Potency, µM (titrated, usually from 76.9 µM), for the others: at the highest dose activity change, negative = inhibition, hits mostly inhibitors; active = falling curve of any shape with a large fitted effect; inconclusive = falling curve, mostly with a smaller effect; inactive = flat or rising curve; cell line not stated here;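 note: intracellular cAMP measured with PDE inhibitor Ro 20-1724 present during compound exposure; potency is the fitted concentration of half-maximal effect; % is set by controls: 0 for no effect and ±100 for the full control effect; nearly all actives have a fitted effect of over 65% in size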
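Cells, 2000/well, grown 16–24 h in DMEM 10% FBS with 0.5 mg/ml G418, then compounds plus […] (300 uM addition stock), 30 min at 37C. cAMP read by HTRF (cAMP-d2 and anti-cAMP antibody-K in lysis buffer) after 30 min RT.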
ClpP mod = qHTS Assay for Activators of ClpP. purified B. subtilis ClpP, FRET peptide cleavage, 20 min. 340,000 tested, 1.9% active. Potency, µM (doses to about 57.5 µM), without a hit: at the highest dose activity change, negative = active; active = well fitted falling curve with a large enough effect; inconclusive = small, poorly fitted or top-dose-only effect; inactive = no such curve, though single readings can be large or run the other way; note: potency is the fitted concentration of half-maximal effect; the source files actives as falling curves though it sought activators and does not explain the sign; nearly all actives have a fitted effect of over 65% in size; many hits overshoot -100%
Target sequence (P80244 whole entry, looked up): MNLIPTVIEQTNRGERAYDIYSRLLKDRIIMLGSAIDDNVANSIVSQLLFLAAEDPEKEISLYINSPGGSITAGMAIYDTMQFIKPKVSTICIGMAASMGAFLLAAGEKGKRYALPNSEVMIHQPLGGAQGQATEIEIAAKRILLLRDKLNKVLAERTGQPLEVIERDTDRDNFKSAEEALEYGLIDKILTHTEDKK
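FRET quenching reversal measured ClpP activation: 10 microg/mL B. subtilis ClpP at pH 8 with the FRET-FV decapeptide, read at 430 nm after 320 nm excitation. The 20-min minus 0-min signal was scaled between DMSO/no-enzyme wells and ADEP (5.8 microM final).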
CtBP-E1A blk = CtBP/E1A binding inhibition; AlphaScreen GST-E1A/His-CtBP binding, 1536-well; hits give low values; control for the full effect not named in the record; activity change, % (concentration not given with the values); 340,000 tested, 0.49% active; AID 651724; in the data active means activity change below about -65%; inconclusive means about -30% to -65%; inactive means above about -30%; note: % is set by controls: 0 for no effect and ±100 for the full control effect
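Homogeneous bead-based format: GST-tagged E1A captured on glutathione donor beads, His-tagged CtBP on nickel acceptor beads; compounds precede bead addition by 2 h at 37 °C.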
Menin MLL FP FL = menin-MLL binding inhibition, fluorescein peptide; Fluorescence polarization, fluorescein-MLL peptide displacement from menin; FP activity change, % at 61.4 µM; AID 1766; 290,000 tested, under 10 active; inconclusive = falling polarisation curve, or a change in total fluorescence; inactive = total fluorescence flat and polarisation flat or rising; no compound was filed as active; the % refers to the polarisation; negative = inhibition;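 note: % of control where 0% means no effect; inhibitors lower the polarisation; unlabelled MLL peptide was the positive control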
TRPV1 potentiator = human TRPV1 potentiation | Q8NER1 | TRPV1-expressing cells, Fluo-8 calcium influx, capsaicin EC20 potentiation; host cell line not named in the record; control for the full effect not named in the record | 320,000 tested, 0.02% active | potentiation, % at 8.33 µM; active means potentiation above 80%; inconclusive means 30% to 80%; inactive means below 30%; note: 0% is about no effect
Target sequence (Q8NER1 whole entry, looked up): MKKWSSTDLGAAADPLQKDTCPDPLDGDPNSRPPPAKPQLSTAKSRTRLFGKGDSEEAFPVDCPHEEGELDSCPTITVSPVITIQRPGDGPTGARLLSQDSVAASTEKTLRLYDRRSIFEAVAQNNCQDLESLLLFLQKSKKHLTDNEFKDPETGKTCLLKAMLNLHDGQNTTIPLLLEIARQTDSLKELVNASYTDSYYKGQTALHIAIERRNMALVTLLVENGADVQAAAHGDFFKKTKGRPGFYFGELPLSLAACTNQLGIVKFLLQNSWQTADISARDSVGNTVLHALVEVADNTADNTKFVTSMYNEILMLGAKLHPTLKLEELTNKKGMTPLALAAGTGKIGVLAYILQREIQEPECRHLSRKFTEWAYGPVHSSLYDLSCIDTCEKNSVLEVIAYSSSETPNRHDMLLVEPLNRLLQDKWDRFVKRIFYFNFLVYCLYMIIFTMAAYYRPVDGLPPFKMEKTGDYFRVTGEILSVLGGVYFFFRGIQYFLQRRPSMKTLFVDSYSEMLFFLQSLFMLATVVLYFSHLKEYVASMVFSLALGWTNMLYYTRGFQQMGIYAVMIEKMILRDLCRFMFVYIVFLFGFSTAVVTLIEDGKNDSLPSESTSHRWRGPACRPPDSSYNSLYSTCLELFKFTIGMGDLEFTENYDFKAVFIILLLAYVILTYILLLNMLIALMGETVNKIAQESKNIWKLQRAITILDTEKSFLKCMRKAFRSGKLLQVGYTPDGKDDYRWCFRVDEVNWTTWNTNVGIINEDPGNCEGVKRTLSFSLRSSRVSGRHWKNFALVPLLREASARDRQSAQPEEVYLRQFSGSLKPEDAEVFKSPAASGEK
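Cells expressing TRPV1 were dye-loaded with Fluo-8 and read kinetically: 10 s baseline, 3 min after compound (agonist portion), then 2 min after EC20 capsaicin (allosteric enhancer portion). Calcium-bound dye fluorescence at 480/520 nm.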
Sfp PPTase inh = Sfp phosphopantetheinyl transferase inhibition; 310,000 tested, 3.5% active; Potency, µM, for inactives: max response, negative = inhibition, actives largely listed as inhibitors; Biochemical Sfp PPTase activity, qHTS; Q9F4F7; active = well fitted inhibition curve with a large enough effect; inconclusive = small, poorly fitted or top-dose-only effect, or another doubt; inactive = no such curve, though single readings can be large or run the other way;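 note: the enzyme is Sfp with the accession as filed and its product quenches rhodamine fluorescence; potency is the fitted concentration of half-maximal effect; 0% = enzyme reaction without inhibitor and -100% = no enzyme wells; top concentration of the series not given in the record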
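Reaction rates are the 30-min fluorescence difference (ex 525, em 598 nm) in wells containing 15 nM Sfp, 5 uM rhodamine-CoA and 12.5 uM BHQ-2-YbbR at pH 7.6 with 10 mM MgCl2.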
gsp ag = gsp mutant agonism; gsp mutant cells, cAMP HTRF, 30 min; control for the full effect not named in the record; Potency, µM (top dose mostly 76.9 µM), for the others: at the top dose activation (cAMP increase), usual class: activators; 340,000 tested, 0.13% active; AID 624287; active = well fitted activation curve with a large enough effect; inconclusive = small, poorly fitted or top-dose-only effect, or another doubt; inactive = no such curve, though single readings can be large or run the other way; cell line not stated here;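 note: phosphodiesterase inhibitor Ro 20-1724 added with compounds to block cAMP breakdown; potency is the fitted concentration of half-maximal effect; nearly all actives have a fitted effect of over 60% in size; about a fifth of the inactives were tested at one dose only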
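Cells stably selected in G418 were plated at 2000/well, grown 16-24 hr, then given compounds in DMSO with the PDE inhibitor […] (300 uM solution added) for 30 min at 37C; cAMP was read by HTRF.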
* marks the source's active call; other numbers are inactive results; ? = inconclusive; / = not tested or not shown; & = joins results of further samples; [ ] = another dose, or the depositor's remark.

SMILES | gsp antag | ClpP mod | CtBP-E1A blk | Menin MLL FP FL | TRPV1 potentiator | Sfp PPTase inh | gsp ag
COCCNC(=O)c1c[nH]c2ccc(S(=O)(=O)N3CCC4(CC3)OCCO4)cc2c1=O | -12% | 20µM* | -3 | 4.6 | -7 | 27% | ?
CCOc1ccc(-n2c(C)nc3c(cnn3-c3ccc(Cl)cc3)c2=O)cc1 | 2% | 1.2% | -4 | -0.2 | 13 | 19% | ?
O=C(CSc1nc2ccccc2s1)N1CCOCC1 | 6% | 0.1% | 2 | -1.4 | -31 | 3% | 16%
O=C(NCc1ccc2c(c1)OCO2)c1n[nH]c(=O)c2ccccc12 | / | / | 4 | -6.0 | -6 | 12% | 13%[15.4 µM]
Cc1ccc(NC(=O)CCCC(=O)O)c(-c2nc3ccccc3[nH]c2=O)c1 | 6% | -5.4% | -8 | 3.6 | -17 | -14% | 7%
CN(CC(=O)Nc1ccc(N2CCOCC2)cc1)C(=O)CSc1ccc(Br)cc1 | -12% | -1.9% | -1 | / | -4 | -4% | 9%
COc1cccc(CNc2ccc(Br)cn2)c1O | -8% | -0.1% | 0 | -0.3 | -2 | -11% | 6%
Cn1c(=NC(=O)CS(=O)(=O)c2ccc(F)cc2)sc2ccccc21 | -21% | -1.4% | 2 | / | -6 | / | 12%[15.4 µM]
CCO[C@@H]1OC(C(=O)NCc2ccccc2)=C[C@H](c2ccc(Br)cc2)[C@H]1CCCO | ? | -0.2% | 2 | 0.9 | 25 | -4% | /
O=C(Nc1ccncc1)c1cc2ccccc2cc1O | -20% | -1.4% | 0 | / | 13 | / | 1%[15.4 µM]
Cc1ccc2nc(-c3ccccc3)oc(=O)c2c1 | -11% | -7.1% | / | -0.5 | -3 | 5% | -33%[inhibitor]
CC(C)Sc1nc(NCc2ccco2)c2c3c(sc2n1)COC(C)(C)C3 | 2% | 28µM* | -4 | 9.7 | -10 | ? | 29%
Cc1ccc2oc(=O)c(/C=C(\O)C(C)(C)C)nc2c1 | -15% | 0.4% | 2 | 1.5 | 5 | 56µM* | ?
CC(C)(C)OC(=O)NCCCCCNC(=O)c1ncn2c1c(=O)[nH]c1ccccc12 | / | 4.1% | -18 | / | / | / | ?
C[C@H]1CN([C@@H](C)CO)C(=O)CCCn2cc(nn2)CO[C@@H]1CN(C)C(=O)Nc1ccc(N2CCCCC2)cc1 | / | -0.1% | 5 | / | / | / | -12%
Cc1cc2nc(/N=C(\N)NC(=O)C(C)C)nc(C)c2cc1C | -7% | -0.3% | 2 | -0.2 | -8 | -3% | -1%[15.4 µM]
CC(=O)N1CCN(S(=O)(=O)c2c(C)n(C)c(=O)n(C)c2=O)CC1 | 12% | 1.2% | 7 | / | -13 | 14% | -26%
Cc1onc(-c2c(F)cccc2Cl)c1C(=O)OCC(=O)c1c(N)n(C)c(=O)n(C)c1=O | -13% | / | 0 | 0.4 | -7 | 2% | -7%
CCOc1cc(-c2c(C#N)c(N)nc3c2CCCC3C)ccc1O (centres undefined) | -1% | -8.4% | 0 | 3.4 | -1 | 0% | -54%[inhibitor]
CC1C(=O)C(C)C(c2ccc(Br)cc2)NC1c1ccc(Br)cc1 (centres undefined) | -2% | 1.3% | / | -1.8 | -8 | -7% | ?
CCC1CCCCN1CCCNC(=O)Cn1cnc2sc(C)c(S(=O)(=O)N3CC(C)CC(C)C3)c2c1=O (centres undefined) | -2% | / | 2 | 7.2 | -5 | 4% | -20%[15.4 µM]
O=C(c1ccc(Cl)cc1)c1coc2ccc(O)cc12 | -4% | -1.1% | 1 | -0.7 | 5 | -10% | 1%
C[C@]12c3[nH]c4ccc(Cl)cc4c3CCN1C(=O)[C@@H](CC(=O)NCCN1CCOCC1)C[C@@H]2C(=O)N1CCCCC1 | -4% | 0.2% | 2 | / | / | / | /
COc1cc(N2CCCC2)c(OC)cc1/C=C1/NC(=S)NC1=O | -2% | -3.0% | 9 | ? | -3 | -23% | 4%

Part of the list above in order of heavy-atom count, lowest first.
SMILES | gsp antag | ClpP mod | CtBP-E1A blk | Menin MLL FP FL | TRPV1 potentiator | Sfp PPTase inh | gsp ag
Cc1ccc2oc(=O)c(/C=C(\O)C(C)(C)C)nc2c1 | -15% | 0.4% | 2 | 1.5 | 5 | 56µM* | ?
COc1cc(N2CCCC2)c(OC)cc1/C=C1/NC(=S)NC1=O | -2% | -3.0% | 9 | ? | -3 | -23% | 4%
CCOc1cc(-c2c(C#N)c(N)nc3c2CCCC3C)ccc1O (centres undefined) | -1% | -8.4% | 0 | 3.4 | -1 | 0% | -54%[inhibitor]
CC(C)(C)OC(=O)NCCCCCNC(=O)c1ncn2c1c(=O)[nH]c1ccccc12 | / | 4.1% | -18 | / | / | / | ?
CCC1CCCCN1CCCNC(=O)Cn1cnc2sc(C)c(S(=O)(=O)N3CC(C)CC(C)C3)c2c1=O (centres undefined) | -2% | / | 2 | 7.2 | -5 | 4% | -20%[15.4 µM]

New compounds follow.
SMILES | gsp antag | ClpP mod | CtBP-E1A blk | Menin MLL FP FL | TRPV1 potentiator | Sfp PPTase inh | gsp ag
CCOC(=O)C1CCN(c2cc3c(cc2NC(=O)c2ccc(OC)c(OC)c2)n(C)c(=O)n3C)CC1 | -22% | -7.4%&0.4% | -2 | -3.8 | -5 | -1% | ?
CNC[C@H]1Oc2ccc(NC(=O)Nc3ccc(OC)cc3)cc2C(=O)N([C@@H](C)CO)C[C@H]1C | 9% | -1.3% | -13 | / | / | / | /
Cc1cccc2cc(CN(Cc3ccccc3)C(=O)N(C)C)c(=O)[nH]c12 | 0% | -21% | -6 | 6.2 | 13 | 12% | 0%
O=C(CSc1nnc2ccccn12)N1CCc2ccccc21 | -37% | / | 17 | 1.8 | 15 | 17% | 8%[15.4 µM]
O=c1c2c(ncn2C2CCCC2)n(Cc2ccccc2)c(=O)n1CCOc1ccccc1 | -8% | 0.7% | 1 | 8.0 | -8 | 0% | -9%[15.4 µM]
CCOc1ncccc1C(=O)OCc1cn2cc(Cl)ccc2n1 | 20% | -3.9% | -2 | 6.7 | -7 | 3% | -16%
N#Cc1c(NC(=O)c2cccnc2)sc2c1CCC2 | 0% | 1.5% | -2 | 4.4 | 9 | 6% | -49%[inhibitor]
CCCCCc1cc(=O)[nH]c(=S)[nH]1 | -3% | 0.8% | / | 2.0 | 21 | -5% | 19%
COCCn1c(SCC(=O)Nc2ccccc2OC)nc2c(oc3ccccc32)c1=O | -11% | -3.3% | -24 | -0.4 | 2 | 9% | -40%[inhibitor]
Cc1ccc2nc(-c3cccc(Br)c3)cc(C(=O)NC3CC3)c2c1 | 2% | ? | 11 | -0.1 | -1 | -9% | -11%[15.4 µM]
NC(=O)Nc1ccc(Cl)cc1 | 13% | / | 4 | 7.4 | 4 | 17% | 15%[15.4 µM]
O=C(CCN1CCOCC1)NNC(=S)NC(=O)c1ccccc1 | -1% | / | -12 | 0.0 | ? | 45µM* | 31%[15.4 µM]
CCC(CC)C(=O)Nc1ccc(S(=O)(=O)Nc2nccs2)cc1 | 4% | / | / | -0.8 | 5 | 16% | 1%[15.4 µM]
COc1ccccc1N(C)S(=O)(=O)c1ccc(C(=O)Nc2ccc(C(N)=O)cc2)cc1 | ? | 35% | / | / | / | / | -3%
Cc1cccc(N2C(=O)CN(Cc3sccc3C)C2=S)c1 | ? | -1.7% | -1 | 12 | -15 | -15% | 19%
Cc1ccc(C(=O)NNS(=O)(=O)c2ccc(F)cc2)cc1 | 10% | / | 5 | 3.6 | -22 | 7% | -1%
COc1cc(NC(=O)c2ccccc2C)c(OC)cc1NC(=O)CN1CCOCC1 | -3% | / | -4 | 0.6 | -9 | 4% | -28%
CC(C)CN(C(=O)COc1ccc(C(C)(C)C)cc1)C1CCS(=O)(=O)C1 (centres undefined) | -5% | 1.4% | 2 | / | -9 | / | 6%[15.4 µM]
CC(C)OC(=O)C1=C(N)N2C(=O)CSC2=C(C(=O)OC(C)C)C1 | ? | -28% | 0 | 20 | -22 | -15% | -35%[inhibitor]
CCNC(=O)CN1C(=O)NC2(CCCCCC2)C1=O | 9% | -0.6% | 4 | 0.5 | 17 | 8% | -28%
CCN(Cc1ccncc1)C(=O)c1ccccc1NS(=O)(=O)c1ccc(Br)cc1 | -21% | 0.0% | / | 3.8 | 4 | 18% | -1%
O=C(CN1CCN(S(=O)(=O)c2ccc(Cl)s2)CC1)NCc1ccc(Cl)cc1 | -15% | -3.1% | 6 | -0.4 | -10 | 56µM* | 3%
COC(=O)/C=C1\S/C(=N/N=C/c2ccccc2)NC1=O | -24% | 1.7% | -4 | -2.7 | 0 | 2% | -12%
CCOC(=O)N1CCN(C(=O)Nc2ccc(Cl)cc2)CC1 | 8% | 1.3% | -2 | -1.8 | -17 | 13% | 6%
CCOC(=O)/C=C1\SCC(=O)N1CC(O)CN1C(=O)CS/C1=C/C(=O)OCC (centres undefined) | -3% | / | -10 | / | / | / | 19%
CCN(CC)c1ccc(NC(=O)c2ccc3c(c2)OCO3)cc1 | -17% | / | -17 | -2.0 | -11 | -17% | -19%
COc1cc(CC(=O)Nc2ccc(S(=O)(=O)NC3=NCCCCC3)cc2)cc(OC)c1OC | 4% | 1.0% | / | -0.5 | -1 | 9% | 0%
O=[N+]([O-])c1cccc(/C=N/NC2=NS(=O)(=O)c3ccccc32)c1 | -4% | / | 2 | 0.0 | 5 | 6% | -9%[15.4 µM]
CCCC(=O)N=C1SC2CS(=O)(=O)CC2N1c1ccc(-c2nc3ccc(C)cc3s2)cc1 (centres undefined) | 2% | ? | 5 | 3.3 | 2 | -2% | 4%
COc1ccc(C(=O)NCC(C)C)c(OC)c1 | -2% | -4.8% | -1 | 3.9 | 3 | 0% | 7%
COc1ccccc1/C=C1\SC(=S)N(CCC(=O)NC2=NCCS2)C1=O | -5% | / | -6 | ? | 1 | -8% | 0%[15.4 µM]
CC(=O)N1c2ccccc2[C@@H](C)[C@@H]1C | 15% | 1.0% | 10 | / | 3 | / | -20%
COc1ccc(C2(C)NC(=O)N(CC(=O)NCc3ccccc3F)C2=O)cc1 (centres undefined) | / | / | 19 | -4.0 | 18 | 16% | -2%[15.4 µM]

Source: PubChem (National Center for Advancing Translational Sciences (NCATS))

An unsorted share of the library, and some 5.3% of all compounds hit somewhere here.
